PKD1 inh = inhibitors of human PKD1 kinase, biochemical, fluorescence polarization; Serine/threonine-protein kinase D1 (Homo sapiens), Q15139; PKD1 kinase fluorescence polarization assay; inhibition, %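 (about 10 µM by stock and volumes)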; 200,000 tested, 0.056% active; AID 797, 2007;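 active means inhibition of 50% or more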;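 further: controls were vehicle for no effect and a reference inhibitor for full effect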
Target sequence (Q15139 whole entry, looked up): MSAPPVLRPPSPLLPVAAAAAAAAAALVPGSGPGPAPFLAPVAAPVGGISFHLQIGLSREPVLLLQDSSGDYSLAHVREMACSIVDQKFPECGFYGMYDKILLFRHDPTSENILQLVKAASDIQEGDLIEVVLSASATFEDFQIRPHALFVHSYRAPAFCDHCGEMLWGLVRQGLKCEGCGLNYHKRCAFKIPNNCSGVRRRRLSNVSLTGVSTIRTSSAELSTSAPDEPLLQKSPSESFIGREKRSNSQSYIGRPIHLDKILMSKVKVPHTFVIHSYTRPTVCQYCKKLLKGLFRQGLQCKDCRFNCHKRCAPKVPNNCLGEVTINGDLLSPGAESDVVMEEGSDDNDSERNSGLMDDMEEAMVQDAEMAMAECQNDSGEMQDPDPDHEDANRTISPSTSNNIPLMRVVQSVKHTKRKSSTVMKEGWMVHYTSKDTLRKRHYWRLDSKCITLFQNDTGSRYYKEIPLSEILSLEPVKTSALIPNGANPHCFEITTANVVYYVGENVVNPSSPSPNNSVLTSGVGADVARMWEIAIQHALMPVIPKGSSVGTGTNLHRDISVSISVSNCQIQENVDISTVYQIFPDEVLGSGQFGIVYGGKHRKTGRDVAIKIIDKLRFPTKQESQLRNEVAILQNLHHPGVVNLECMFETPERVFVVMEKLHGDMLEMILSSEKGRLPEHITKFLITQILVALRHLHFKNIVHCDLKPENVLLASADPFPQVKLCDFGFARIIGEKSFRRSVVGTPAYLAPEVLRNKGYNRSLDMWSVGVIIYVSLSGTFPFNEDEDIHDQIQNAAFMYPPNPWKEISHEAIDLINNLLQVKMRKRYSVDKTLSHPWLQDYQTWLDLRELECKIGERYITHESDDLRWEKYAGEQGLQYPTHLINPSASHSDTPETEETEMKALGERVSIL
GALR2 agonist = GALR2 receptor agonists, primary screen, cell-based. Galanin receptor type 2 (Homo sapiens), O43603. 140,000 tested, 0.48% active. activation, %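 (tested at 5 µM)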. GALR2-expressing cells, agonist activation read-out;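 active means above mean plus 3 SD of all compounds, about 5% in these data, not always enough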;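 further: 0% = vehicle buffer wells and 100% = reference agonist at full effect; tested in CHO reporter cells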
HSV replic up = enhancers of HSV replication in host cells, fold increase, host cell viability; HSV replication augmentation in cells; maximum fold increase; 220,000 tested, 0.005% active;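 active means peak rise of 1.5-fold or more in the series; tested in PC3 cells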;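 further: first round at 10 µM; read as green reporter fluorescence; hits show the peak of a series up to 25 µM; 1 = signal of infected wells without compound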
Insulin prom inh = inhibitors of insulin promoter-driven GFP, primary screen, imaging, TRM-6 cells (human fetal islet line), eGFP reporter, cell count | reporter expression induced with tamoxifen | 130,000 tested, 0.9% active | inhibition, % at 2 µM;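 active means inhibition above the mean plus 3 SD, with well images judged a real hit on visual review, cut at about 60% in these data, passing the limit was not always enough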
RGS16-Gao = modulators of RGS16 binding to Galphao, primary screen, biochemical, human proteins, multiplexed bead flow cytometry; 220,000 tested, 0.38% active; AID 1441, 2008; binding response (% of control), % at 10 µM; bead-based flow cytometry RGS16-Galphao binding, fluorescence; actives lie on both sides;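 active means below 25% or above 175%, edge rows of some plates excepted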;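 further: Galphao activated by GDP with aluminum fluoride before binding; 100% = wells without compound and 0% = beads without RGS; some results beyond the cut were filed as inactive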
Insulin prom inh cell count = recorded beside Insulin prom inh, whose call it bears; normalized cell count, %; measured here: cell count, toxicity; reference of the scale not given here;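 cells exposed to compound for 48 h; stained nuclei by imaging scaled within each plate; lower means fewer cells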
HSV replic up primary fold = recorded beside HSV replic up, whose call it bears; fold increase; compound at 10 µM; measured here: primary screen fold increase 10 uM; tested in PC3 cells;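 GFP signal in the first replicate; 1 = infected wells without compound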
* = called active by the depositor; i = inactive; . = no result given.

mol | Insulin prom inh | PKD1 inh | Insulin prom inh cell count | HSV replic up | HSV replic up primary fold | GALR2 agonist | RGS16-Gao
CN(C)S(=O)(=O)c1ccc(N2CCCC2)c(C(=O)Nc2ccccc2OC(F)F)c1 | . | -8 | . | i | 1.1 | . | 109
CN(CC(=O)N1CC=C(c2ccccc2)CC1)S(=O)(=O)c1cnc[nH]1 | 50 | -8 | 118 | i | 0.99 | -0.4 | 100
O=C(Nc1nc(-c2ccccc2)cs1)C1CCCN(S(=O)(=O)c2cccc([N+](=O)[O-])c2)C1 (stereo unspecified) | -22 | -4 | 71 | i | 0.78 | -3.2 | 77
COc1cccc(NC(=O)CCCOc2cc(=O)n(C)c3ccccc23)c1 | -50 | -14 | 73 | i | 0.93 | -3.1 | 97
Cc1ccc(-n2nnnc2SCC(=O)N(CC(C)C)c2c(N)n(CC(C)C)c(=O)[nH]c2=O)cc1 | . | -7 | . | i | 1.1 | . | 102
CCC1(C)Cc2ccccc2-c2nc3n(c(=O)c21)CCS3 (stereo unspecified) | 17 | -4 | 72 | i | 1 | 0.3 | 110
COc1ccccc1-c1cc(C(F)(F)F)nc(N2CCN(c3ccc(F)cc3)CC2)n1 | -10 | 2 | 41 | i | 0.83 | 0.4 | 100
COc1cc2c(cc1NC(=S)Nc1cccc(C(F)(F)F)c1)oc1ccccc12 | 7 | 9 | 87 | i | 0.76 | -1.7 | 100
C[C@@H]1CC[C@H](O)/C=C/C(=O)O[C@H](C)CC[C@H](O)/C=C/C(=O)O1 | . | . | . | i | 0.97 | . | 95
COc1ccc(N2C(=O)[C@@H]3Cc4ccccc4CN3C2=O)cc1 | . | 0 | . | i | 0.98 | -1.0 | 104
CN(Cc1cnn(-c2ccc(F)cc2)c1)Cc1nc(Cc2ccccc2)no1 | . | -4 | . | i | 0.91 | . | 90
CC(C)Oc1cccc(C(=O)NC(=S)Nc2cccnc2)c1 | 57 | 4 | 156 | i | 0.95 | -2.0 | 112
CCOC(=O)c1ccc(NC(=S)NC(=O)COc2ccccc2)cc1 | 53 | -10 | 100 | i | 0.86 | -0.5 | 101
Fc1c(F)c(F)c(N/N=C/c2c[nH]c3ccccc23)c(F)c1F | . | 2 | . | i | 0.92 | 4.0 | 98
O=C(/C=C/c1ccc(Br)o1)OCc1ccccc1 | -41 | -1 | 147 | i | 0.88 | -0.6 | .
O=C(OCn1nnc2ccccc2c1=O)C1COc2ccccc2O1 (stereo unspecified) | . | -10 | . | i | 0.94 | -2.2 | 104
Cn1c(=O)c2c(nc(N3CCOCC3)n2CCc2ccccc2)n(C)c1=O | 44 | -1 | 94 | i | 1.3 | . | 92
CCOc1ccc(C(=O)Nn2cnnc2)cc1 | -12 | -4 | 114 | i | 0.84 | -0.9 | 95
O=C(NC(N1CCCCCC1)C(Cl)(Cl)Cl)c1ccccc1Cl (stereo unspecified) | 40 | -2 | 123 | i | 0.88 | -1.4 | 111
CCc1ccc(OCC(=O)Nc2cc(S(=O)(=O)CC)ccc2O)cc1 | . | 2 | . | . | . | -1.4 | 95
O=C1c2ccccc2C(=O)N1CCCON1C(=O)c2ccccc2C1=O | -15 | -4 | 73 | i | 0.92 | -0.1 | 101
N#CC1=C(N)OC2=C(C(=O)CCC2)C1c1ccc(OC(=O)N2CCOCC2)cc1 (stereo unspecified) | 0 | -6 | 120 | i | 0.81 | -1.7 | 99
COc1ccc(C2N=C(N)N=C(N)N2c2ccccc2)cc1OC (stereo unspecified) | . | 1 | . | i | 1 | -1.1 | 105
Oc1ccc(-c2nccc(-c3ccc(Cl)cc3Cl)n2)cc1 | . | 0 | . | i | 0.97 | . | 104
Cc1ccccc1N=C1NC(=O)/C(=C/c2cccnc2)S1 | . | . | . | i | 1.1 | . | 98
Cn1ccnc1Sc1cc(NCCCO)c([N+](=O)[O-])c2nonc12 | 0 | -8 | 107 | i | 0.9 | . | 94
C1=C(c2ccccc2)N2CCN=C2S1 | 35 | 4 | 112 | i | 1 | -2.3 | 92
O=C(NNC(=S)NC(=O)c1ccccc1[N+](=O)[O-])c1ccccc1 | -207 | -7 | 89 | i | 0.92 | -4.1 | 97
COc1ccccc1-n1cnnc1SC(C)C(=O)Nc1cccc([N+](=O)[O-])c1 (stereo unspecified) | . | 2 | . | i | 0.86 | -0.8 | 99
CCOC(=O)c1nnn2c1nc(SCC(C)=O)c1ccccc12 | . | . | . | i | 1.1 | . | 113
COc1ccc(OC)c(C(=O)c2ccc(C(=O)Nc3cccc4ccccc34)cc2)c1 | 32 | -5 | 97 | i | 1 | -1.7 | 112
Cc1sc2nc(SC3CCOC3=O)n(Cc3ccccc3)c(=O)c2c1C (stereo unspecified) | -24 | 0 | 96 | i | 1.1 | . | 101
CC1=C(C(=O)Nc2cccnc2)C(c2ccc3c(c2)OCO3)C2=C(CCCC2=O)N1 (stereo unspecified) | 26 | 0 | 129 | i | 1 | -1.7 | 100
c1ccc(C2CNCc3c2ccc2ccccc32)cc1 (stereo unspecified) | 43 | -5 | 72 | i | 0.62 | -0.3 | 66
Cc1nnc(NC(=O)CSc2nnc(CNC(=O)c3ccccc3)n2-c2ccccc2)s1 | . | -12 | . | i | 0.84 | -1.7 | 106
O=C(NC(C(=O)N/N=C/c1ccccn1)c1n[nH]c(=O)c2ccccc12)c1ccccc1 (stereo unspecified) | . | . | . | i | 1 | . | 102
CCOC(=O)C1CCN(c2c(NCCN(CC)c3ccccc3)c(=O)c2=O)CC1 | . | . | . | i | 1.1 | . | 100
CCC(CC)C(=O)NCCc1ccc(S(N)(=O)=O)cc1 | -90 | 10 | 73 | i | 0.79 | 10 | 118
CCCCc1nnc(NC(=O)c2nc3nccc(C)n3n2)s1 | -58 | -2 | 105 | i | 1.1 | . | 105
O=C(Nc1nc(-c2ccccc2)cs1)c1ccc2c(=O)n3c(nc2c1)CCCCC3 | 21 | -9 | 94 | i | 0.77 | 0.0 | 102
O=C(Nc1ccccc1F)c1c[nH]c(=O)[nH]c1=O | . | . | . | i | 0.91 | . | 103
CC(C)(C)C(=O)c1cnc(Nc2ccccc2)s1 | -43 | -2 | 225 | i | 0.82 | 0.0 | 99
CCC(Sc1ccc(C(=O)O)cc1)C(=O)O (stereo unspecified) | 13 | -7 | 114 | i | 1 | 0.9 | 100
CO/N=C\CC(=O)Nc1ccc(Oc2ccccc2)cc1 | . | 3 | . | i | 0.79 | . | 102
O/N=C/c1cn(-c2ccccc2)nc1-c1cccnc1 | . | -12 | . | i | 1.1 | . | 95

Complete entries from above. Order of values: Insulin prom inh, PKD1 inh, Insulin prom inh cell count, HSV replic up, HSV replic up primary fold, GALR2 agonist, RGS16-Gao
CCC(CC)C(=O)NCCc1ccc(S(N)(=O)=O)cc1 reads -90, 10, 73, i, 0.79, 10, 118
CO/N=C\CC(=O)Nc1ccc(Oc2ccccc2)cc1 reads ., 3, ., i, 0.79, ., 102
O=C(NC(C(=O)N/N=C/c1ccccn1)c1n[nH]c(=O)c2ccccc12)c1ccccc1 (stereo unspecified) reads ., ., ., i, 1, ., 102
c1ccc(C2CNCc3c2ccc2ccccc32)cc1 (stereo unspecified) reads 43, -5, 72, i, 0.62, -0.3, 66
Cc1sc2nc(SC3CCOC3=O)n(Cc3ccccc3)c(=O)c2c1C (stereo unspecified) reads -24, 0, 96, i, 1.1, ., 101

Further results.
mol | Insulin prom inh | PKD1 inh | Insulin prom inh cell count | HSV replic up | HSV replic up primary fold | GALR2 agonist | RGS16-Gao
COc1cccc(OCC(=O)NNC(=O)C(=O)N2CCCC2)c1 | -7 | 3 | 94 | i | 0.94 | -1.3 | 88
CCOC(=O)c1nc2ccccc2c(=O)[nH]1 | . | . | . | i | 1.1 | . | 106
Cc1nc2c(=O)[nH]c3ccccc3c2o1 | 22 | -1 | 88 | i | 0.88 | . | 97
COc1ccc(CCNC(=O)Cc2ccc(OCc3ccccc3)c(OC)c2[N+](=O)[O-])cc1OCc1ccccc1 | -57 | 6 | 105 | . | . | -0.4 | 105
CCC(C)NC(=O)CC(c1ccc(OC)cc1)n1cccc1 (stereo unspecified) | 9 | -5 | 45 | i | 0.98 | -0.9 | 100
CCCC(=O)Nc1cc(C)c2c(=O)oc3ccccc3c2n1 | . | . | . | i | 1 | . | 102
CCCCC(=O)NS(=O)(=O)c1ccc(N=NN2CCOCC2)cc1 | 3 | -12 | 64 | i | 0.92 | -0.9 | 138
CC1(c2nnc(-c3ccccc3)o2)CC(c2ccc(Cl)cc2)=NO1 (stereo unspecified) | . | . | . | i | 1.2 | . | 104
Cc1ccc(CSc2nnc(SCC(=O)N/N=C/c3c[nH]c4ccccc34)s2)cc1 | 30 | -3 | 97 | i | 0.68 | . | 99
CC(=O)Nc1ccc(SC(C)C(=O)NC(N)=O)cc1 (stereo unspecified) | -43 | -8 | 59 | i | 1 | -3.3 | 100
CC(C)(C)C(=O)C[n+]1ccc(C(N)=O)cc1 | 29 | -11 | 104 | i | 0.92 | -2.1 | 99
O=C(Nc1cccc(S(=O)(=O)N2CCCCC2)c1)c1ccc([N+](=O)[O-])o1 | . | -7 | . | i | 0.67 | . | 100
CC1(C)C(=O)C2(CCCCC2)C(=O)OC1c1cccc([N+](=O)[O-])c1 (stereo unspecified) | -90 | 4 | 108 | i | 1 | -1.2 | 105
O=C(NCc1cn(-c2ccccc2)nc1-c1ccccc1)c1cccc([N+](=O)[O-])c1 | . | -2 | . | i | 0.95 | -1.7 | 96
CCOc1cc(C(=O)Nc2cccc(C(C)=O)c2)ccc1OCC(=O)N1CCCCC1 | 43 | -7 | 155 | . | . | . | 100
COCCNC(=S)Nc1ccc(S(=O)(=O)Nc2ncccn2)cc1 | . | -1 | . | i | 1 | . | 103
CCc1ccccc1NC(=O)CN(C)S(=O)(=O)c1ccc2c(c1)c(=O)n(C)c(=O)n2C | . | -7 | . | i | 0.85 | -1.4 | 100
CCc1nnc(NC(=O)CSc2nnc3c(C)cc4c(C)ccc(C)c4n23)s1 | . | -1 | . | i | 0.86 | -0.7 | 100
OCCCc1nc2n(n1)C(c1ccccc1)C=C(c1ccccc1)N2 (stereo unspecified) | . | -16 | . | i | 1.1 | -1.2 | 106
Cc1noc(NS(=O)(=O)c2ccc(NC(=O)CSc3nc4c(cc3C#N)CCCC4)cc2)c1C | . | -6 | . | i | 0.95 | -1.7 | 111
COc1ccc(Oc2nc3ccccc3n(C)c2=O)cc1 | -23 | -2 | 124 | i | 1 | -0.7 | 101
Cc1onc(-c2c(Cl)cccc2Cl)c1C(=O)NN1CCCCCC1 | . | . | . | i | 0.97 | . | 98
Cc1ccc(OCC(=O)N2c3ccccc3CC2C)c([N+](=O)[O-])n1 (stereo unspecified) | 7 | 4 | 134 | i | 1 | . | 96
Cc1cc(NS(=O)(=O)c2ccc(NC(=O)CSc3nc4ncc(Br)cc4[nH]3)cc2)nc(C)n1 | . | . | . | i | 0.94 | . | 104
CCOc1ccc(Cn2ccnc2CCl)cc1[N+](=O)[O-] | . | -10 | . | . | . | -3.7 | 72
CC1CC(C)(C)NC(=S)N1CC(=O)NCc1ccc2c(c1)OCO2 (stereo unspecified) | . | -5 | . | i | 1 | . | 105
Cc1cc(C)c2[nH]c(=O)c(CN(C(=O)C3CCCO3)C3CCCC3)cc2c1 (stereo unspecified) | 6 | -13 | 126 | i | 0.85 | -1.4 | 102
Cc1cccc(C(=O)O/N=C(/c2ccccc2)c2ccncc2)c1 | . | 3 | . | i | 1.1 | . | 100
O=C1NC(c2ccccc2)C(C(=O)c2cccs2)=C1O (stereo unspecified) | . | -11 | . | i | 1 | 0.2 | 101
COc1ccc(N(CC(=O)NN=C2CCCCCCC2)S(=O)(=O)c2ccccc2)cc1 | 2 | 9 | 117 | i | 0.83 | -0.6 | 109
Cc1ccccc1-c1nnc(SCc2ccc(F)cc2)o1 | 49 | -5 | 61 | i | 1.1 | -3.6 | 96
